# Screening data deposited in PubChem by ICCB-Longwood Screening Facility, Harvard Medical School.
# GIV Gai3 FP: inhibitors of GIV peptide binding to Galpha-i3, primary screen, biochemical, fluorescence polarization, FITC-GIV GBA peptide, rat Galphai3. AID 1224905, 2016. 90 min; stronger effect = lower value; scaled: aluminum fluoride 0%, vehicle 100%. percent of control (FP), % (test concentration not listed). 0.42% of 210,000 active. Guanine nucleotide-binding protein G(i) subunit alpha-3 (Rattus norvegicus), P08753;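 active means replicate mean at 85% of control or lower, very high polarization wells dropped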;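 further: wells of about 15 µL received 100 nL stock; the first replicate is given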
# Target sequence (P08753 whole entry, looked up): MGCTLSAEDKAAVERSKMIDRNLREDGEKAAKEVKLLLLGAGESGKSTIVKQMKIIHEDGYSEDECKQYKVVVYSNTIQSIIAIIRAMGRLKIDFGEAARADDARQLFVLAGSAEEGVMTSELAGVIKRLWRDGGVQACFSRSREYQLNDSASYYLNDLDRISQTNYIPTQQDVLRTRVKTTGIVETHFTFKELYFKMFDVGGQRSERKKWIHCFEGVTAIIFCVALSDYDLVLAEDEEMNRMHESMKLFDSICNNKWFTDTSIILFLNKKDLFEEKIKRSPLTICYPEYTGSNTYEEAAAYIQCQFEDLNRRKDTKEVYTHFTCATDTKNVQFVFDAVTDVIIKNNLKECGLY
# Sa growth inh: S. aureus growth inhibition at 42 and 30 °C, primary screen, LtaS inhibitor project, RN4220, two temperatures | OD600, 20 h, 42 °C; stronger effect = lower value | relative growth, % (no concentration beside the values) | 0.53% of 170,000 active | AID 720641, 2013;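 active means growth at 42 °C up to 50% and 20 or more points under that at 30 °C, or under 10% at both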;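 further: 300 nL library stock went into each well; scaled to the means of positive and negative controls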
# HCMV NEC inh: inhibitors of HCMV UL50-UL53 interaction, biochemical, HTRF; HCMV UL50-UL53 nuclear egress complex (human cytomegalovirus); normalized percent inhibition; inhibition, % (test concentration not listed); 0.15% of 190,000 active; AID 1918969, 2023;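 active means both replicates at 50% or more, plus weaker picks with an unusually low signal ratio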;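 further: stock transfer was 100 nL into about 20 µL; 0% = negative control wells and 100% = wells with untagged competitor protein; inactives centre near -12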
# Sa growth inh second temp: recorded beside Sa growth inh, whose call it bears; relative growth, %; measured here: growth at 30 °C;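 optical density after 20 h as mean of two plates; 100% = untreated growth and lower means inhibition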
# * hit, by the source's call; . = not tested or not shown; & = joins results of further samples.
SMILES,GIV Gai3 FP,Sa growth inh,Sa growth inh second temp,HCMV NEC inh
Cc1ccc(Cl)cc1N1CCN(C(=O)Cn2cnc3nc4c(cc3c2=O)CCCC4)CC1,100.4,109.5,23.4,.
Cc1ccc(Nc2cc(=O)[nH]c(=O)[nH]2)cc1Cl,.,56.2,17.8,-7.8
CCOc1ccccc1C(=O)Nc1nnc(COC)s1,100.8,92.8,88.2,.
CSc1ccc(CNC(=O)Cn2ccc3cc(S(=O)(=O)N4CCCC4)ccc32)cc1,109.2,119.7,90.4,.
CCOC(=O)COc1nc(C)cc(COC)c1C#N,101.2,.,.,-4.8
O=S(=O)(CCN1CCN(S(=O)(=O)c2ccccc2C(F)(F)F)CC1)c1ccc(Br)cc1,.,102.0,92.6,5.6
COc1ccc(Cl)cc1NC(=O)Cn1cc(C(=O)c2ccc(C)cc2)c(=O)c2ccc(C)nc21,117.2,80.9,83.4,.
NNC(=O)c1cc(COc2cc(Cl)cc(Cl)c2)on1,108.0,108.1,92.9,-21.5
CCOC(=O)C1=C(NC2CCCCC2)C(=O)N(c2ccccc2)C1,.,108.1,95.9,-9.3
CC(C)Oc1ccc(CNC(=O)C2CCN(c3nc4ccccc4n(C)c3=O)CC2)cc1,98.1&95.9,99.1,86.0,-29.8&4.9
NC(=O)C1CCN(C(=O)N2c3ccccc3Sc3ccccc32)CC1,.,92.8,98.0,1.7
COc1cccc(C2c3c(-c4cc(C)ccc4O)n[nH]c3C(=O)N2CCCO)c1 (configuration not stated),104.1,.,.,-19.2
CCOC(=O)CC1=C(C(=O)OCC)C2(C(=O)N(CC(=O)OC)c3ccccc32)C(C(=O)OCC)=C(N)O1 (configuration not stated),95.8,87.2,85.6,-18.0
COc1ccc(NS(=O)(=O)c2ccc(-c3cnc(C4CC4)o3)cc2)cc1Cl,101.5,97.4,98.3,.
NCCCc1nc2cc3ccccc3cc2[nH]1,104.5,115.8,92.9,.
CCOc1ccc(-c2cc3c(SCC(=O)c4ccc(C)cc4C)nccn3n2)cc1,98.5,.,.,7.4
Cc1ccccc1CNCCCSc1nnnn1-c1ccccc1,102.9,108.7,84.6,-34.9
CC(CCc1ccccc1)NCC(O)c1ccc(O)c(C(N)=O)c1 (configuration not stated),100.6,100.5,100.2,2.1&-9.2&-16.9&-61.5&-35.4
CCOc1ccc(-n2nc3ccc(NC(=O)c4ccc(C)cc4C)cc3n2)cc1,105.2,119.0,100.0,-4.4
Cc1cc(C(=O)COC(=O)Cc2coc3cc(O)ccc23)c(C)n1C,.,77.0,93.7,-18.1
CCc1cccc(CC)c1NC(=O)c1c(C)oc2ccc(O)c(CN3CCCC3)c12,106.5,103.1,97.9,0.8
O=C(COc1ncnc2sccc12)c1ccc(Cl)s1,.,95.7,89.5,-22.6
CCc1ccc(NCc2cn(-c3ccccc3)nc2-c2cccs2)cc1,103.0,78.9,95.1,.
CCCCCn1c(=O)[nH]c2cc(C(=O)NCCCC)ccc2c1=O,99.1,83.4,87.8,-32.8
Cc1cccc(N2CCN(S(=O)(=O)c3cnc[nH]3)CC2C)c1 (configuration not stated),101.5,91.2,100.0,3.4
# (more compounds)
SMILES,GIV Gai3 FP,Sa growth inh,Sa growth inh second temp,HCMV NEC inh
COc1ccc(N=C(CCCN2C(=O)c3ccccc3C2=O)C2=C(O)CC(C)(C)CC2=O)cc1,101.8,117.7,94.2,.
O=c1c(C=NCc2ccc3c(c2)OCO3)c(CSc2ccc(Cl)cc2)[nH]n1-c1nc2ccccc2s1,103.9,.,.,16.0
O=C(CC1SC(=Nc2ccccc2)N(c2ccccc2)C1=O)Nc1cccc(Cl)c1 (configuration not stated),107.8,.,.,-6.0
N#Cc1cc(C#N)c(SCC(N)=O)nc1N,132.5,122.7,93.0,-31.5
Cc1nc(Nc2ccc(NC(=O)C(C)C)cc2)cc(N2CCCC2)n1,99.0,.,.,-34.0
O=C(O)c1ccccc1S(=O)(=O)NCC(O)COC1CCCCC1 (configuration not stated),106.4,104.2,91.2,-17.3
COc1cc2c(cc1OC)CN(CC(=O)NC(=O)NCc1ccccc1)CC2,.,93.5,98.2,-8.0
Cc1ccc(CN2C(=O)N/C(=C/c3ccc4c(c3)n(C)c(=O)n4C)C2=O)cc1,98.1,98.4,83.0,-20.8
O=C(COc1ccc(Cl)cc1)OC1CCOC1=O (configuration not stated),.,76.4,89.8,-20.0
CSc1nc2ccc(NC(=O)c3c(C)nn(-c4ccccc4)c3Cl)cc2s1,.,84.2,100.3,-3.0
O=C(c1cccc(-c2noc(-c3ccc4c(c3)OCO4)n2)c1)N1CCCC1,99.0,.,.,20.3
CCOC(=O)N1CCN(CCC(=O)c2ccc(Br)cc2)CC1,100.6,-1.7*,0.1*,.
COc1ccc(-c2csc(CC#N)n2)cc1OC,.,76.2,87.3,-30.4
O=C(CSc1nccn1Cc1ccc(F)cc1)Nc1ccc2c(c1)OCO2,106.2,103.9,95.3,.
Cn1c(=O)[nH]c(=O)c2c(C(F)(F)F)cc(-c3ccco3)nc21,.,88.2,79.7,-38.3
Cc1cc(C)n2nc(CN(C(=O)C(C)(C)C)c3ccc(Cl)cc3)nc2n1,106.7,.,.,-13.3
COC(=O)N(C)CCCC1(C)C(=O)N(C)c2ccc(O)cc21 (configuration not stated),99.4,106.0,89.8,1.1
CSc1ncccc1C(=O)N(C)C,98.6,101.5,88.2,-11.3
CC(C)Cn1c(=O)c2sccc2n2c(SCC(=O)N3CCCCC3C)nnc12 (configuration not stated),109.8,.,.,8.5
CCCc1nc2ccccc2n1CC(=O)Nc1sc(C(=O)N(C)C)c(C)c1C(=O)OCC,.,86.3,92.0,-9.6
O=C(O)C1(O)c2ccccc2NC(=S)N1Cc1ccccc1 (configuration not stated),.,63.2,81.1,1.0
O=S(=O)(Cc1ccccc1Cl)N1CCOCC1,108.5,94.6,103.6,-5.1
Cc1c(C(=O)N(C)Cc2ccccc2)sc2nc(-c3ccc(F)cc3)cn12,112.3,90.5,55.6,.
COc1cccc(CNC(=O)Cn2ncn3c(C)c(C(=O)NC4CCCCC4)c(C)c3c2=O)c1,99.8,99.0,88.9,-16.2
O=C(c1ccc2c(c1)OCO2)N1CCN(S(=O)(=O)c2cc3c4c(c2)CCN4C(=O)CC3)CC1,107.0,.,.,-19.2
# Additional structures:
SMILES,GIV Gai3 FP,Sa growth inh,Sa growth inh second temp,HCMV NEC inh
CCOC(=O)C1=C(C)NC(=S)N(C=O)C1c1ccccc1 (configuration not stated),106.0,96.1,111.4,4.4
Cc1ccc(Cl)cc1N1CCN(C(=O)c2cn(C)c3ccc(S(=O)(=O)N(C)C4CCCCC4)cc3c2=O)CC1,105.6,96.0,92.8,21.4
CCc1ccccc1NC(=O)C1CCN(S(=O)(=O)c2cn(C)cn2)CC1,99.1,106.7,88.5,.
c1cc(-c2nnc(C34CC5CC(CC(C5)C3)C4)o2)ccn1,.,76.7,95.4,-27.7
COc1cccc(NC(=O)NCc2ccc3c(c2)N(C(=O)c2ccccc2)CC3)c1,95.6,.,.,11.6
CCOc1ccc(N2CCn3c2nc2c3c(=O)n(CC(=O)O)c(=O)n2C)cc1,94.4,.,.,2.7
N#CCCn1cc(CNCCOc2ccccc2)c2ccccc21,.,93.3,89.0,12.7
CCCCC(=O)OCc1cc(=O)n2nc(C3CC3)sc2n1,122.3,84.7,80.0,.
Cc1ccc2cccc(OCc3ccc(Br)cc3)c2n1,94.3,108.7,100.8,.
CC(C)Cc1ccc2c(N)c(C(=O)c3ccccc3)sc2n1,.,57.7,61.2,-17.8
COc1ccc(N(C)C(=O)CCc2nc(-c3ccccc3F)no2)c(OC)c1,100.9,106.1,76.4,.
CC1CN(Cc2ccccc2)C(C)CC1O (configuration not stated),.,100.7,97.6,5.6
CCC1=Nc2cc(C(=O)NC(C)c3ccccc3)ccc2Sc2ccc(Cl)cc21 (configuration not stated),105.9,111.3,97.2,-3.6
O=C(c1ccco1)N1CCN(c2cccc3[nH]ccc23)CC1,97.8,93.3,89.9,-12.2
COc1ccc(OC)c(NC(=O)NCCn2c(-c3ccncc3)nc3cccnc32)c1,103.8,.,.,-3.2
Cc1ccccc1Nc1nc(Nc2ccccc2C)nc(Sc2nccn2C)n1,.,100.5,83.8,-8.5
Cc1ccc(-n2nc(C)c3c(C)cc(C(=O)NCc4ccc(CN5CCOCC5)o4)nc32)cc1,101.9,107.4,86.3,.
Cc1ccc(C(C)C)c(OCC(=O)Nc2cccc(NC(=O)c3ccco3)c2)c1,106.0,108.6,86.4,-30.7
CC(=O)Nc1nc2ccc(CC(=O)N3CCc4ccccc4C3)cc2s1,102.6,.,.,4.8
COC(CNC(=O)c1ccc(-c2cc(Cl)ccc2Cl)o1)OC,.,87.6,89.3,-33.1
O=C(c1cc(-c2cccnc2)on1)N1CCc2ccccc21,100.2,.,.,3.1
O=C(NC1CCCCC1)c1cc(Nc2cccc(C(F)(F)F)c2)nc2ccccc12,107.9,98.2,93.8,.
O=C(CC(NCc1ccccc1)C(=O)O)c1ccc(C2CCCCC2)cc1 (configuration not stated),.,134.4,90.8,-6.3
Cc1nc2nc(NC(=O)CC(C)C)[nH]n2c(=O)c1Cc1ccccc1,96.3,96.1,94.7,11.8
COc1ccc2[nH]cc(CCNC(=O)Nc3cccc(F)c3)c2c1,104.9,99.1,71.3,-19.0
# (cont.)
SMILES,GIV Gai3 FP,Sa growth inh,Sa growth inh second temp,HCMV NEC inh
CCCCc1noc(-c2c(-c3ccccc3Cl)noc2C)n1,100.9,95.9,83.3,1.5
C=CCNC(=O)CN1C(=O)CSc2ccc(C(=O)N3CCCC3)cc21,105.7,.,.,-24.2
COc1cccc(NC(=O)CSc2nnc(N)s2)c1,103.5,100.0,84.6,.
Cc1nc(S(=O)(=O)NCc2ccc(-c3cccs3)cc2)cn1C,105.2,98.5,91.2,-39.0
CSc1nsc(SCc2ccc(F)cc2)n1,105.7,105.5,110.0,9.4
CCC(C(=O)NC1CCCCC1)n1nc(C)c2sc3ccccc3c2c1=O (configuration not stated),102.8,111.0,98.7,-20.4
CCOC(=O)c1c(C)[nH]c(CCC(=O)NCc2ccc(OC)c(OC)c2)c1C,105.2,92.8,84.2,.
COc1ccc(NC(=O)c2ccc(CN3CCCn4nc(C)cc43)cc2)cc1OC,96.7,.,.,-18.3
O=C(Cc1cn2ccsc2n1)Nc1ccccc1OC(F)F,.,106.8,92.4,14.4
CC(C)n1c(=O)c2cn(S(=O)(=O)c3cccc4nsnc34)nc2n(C(C)C)c1=O,110.2,.,.,-9.8
CCS(=O)c1ccccc1C(=O)NCc1ccc(C)cc1 (configuration not stated),.,9.9,20.9,-32.3
CC(=O)Nc1ccc2c(c1)CCCN2C(=O)c1cccs1,101.5,95.3,82.6,-25.0
NC(=O)c1noc(C(=O)c2ccccc2)c1N,104.6,85.7,85.0,-76.6
CC1CCN(C(=S)SCC(=O)n2c3c(c4ccccc42)CCCC3)CC1,99.3,82.5,89.1,.
CCOC(=O)c1c(S(=O)(=O)N2CCC(C(=O)Nc3ccc(F)cc3F)CC2)c(C)n(C)c1C,107.5,133.3,96.7,.
CC(=O)N(c1ccccc1)C1CC(C)N(C(=O)c2ccc([N+](=O)[O-])cc2)c2ccccc21 (configuration not stated),105.2,.,.,-27.3
O=C(c1ccc(N2CCCc3ccccc32)s1)n1ccnc1,109.5,59.4,8.1,-14.5
O=C(COC(=O)c1ccc(N2C(=O)c3ccccc3C2=O)cc1)Nc1ccc2[nH]c(=O)[nH]c2c1,.,77.9,90.8,-44.0
Clc1ccc2nc(-c3ccc(N4CCOCC4)cc3)c(Nc3ccccc3)n2c1,99.6&103.2,84.9,90.9,-12.9&15.1
COc1cc(-c2nc(-c3cccc(Cl)c3)c(-c3ccccc3)[nH]2)cc(OC)c1OC,108.4,103.5,97.2,3.0
CCNc1nc(OC)nc(N2CCC(Cc3ccccc3)CC2)n1,105.4,85.7,97.7,9.1
O=C1CSC2(C(=O)N(Cc3ccccc3F)c3ccccc32)N1c1ccc(F)cc1 (configuration not stated),102.1,100.3,82.4,.
